RmlC RmlD mix: inhibitors of RmlC and RmlD coupled enzymes. RmlC/RmlD coupled enzyme inhibition, 384-well mixture HTS. inhibition, % at 5.5 µM. 110,000 compounds, 0.39% hits. AID 1532; in the data active = inhibition above about 30%, passing the limit was not always enough; only retested compounds are shown here; also: strong numbers were not always called active
RmlC RmlD mix retest: further read-out of RmlC RmlD mix, marked with its call; inhibition, %; measured here: mean retest inhibition;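 single compounds in two wells; values far above 100% likely come from compound fluorescence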
Numbers without * were called inactive; i = inactive; . = not tested or not shown.

compound	RmlC RmlD mix	RmlC RmlD mix retest
CCOC(=O)c1[nH]c2ccc(OC)cc2c1NS(=O)(=O)c1ccc(OC)cc1OC	58.9	-3.9
COc1ccc(-n2c(C)c([N+](=O)[O-])c3ccc(O)c(CN4CCCCC4)c32)cc1	135.9	1.3
O=C(CSc1ccccn1)Nc1nncs1	177.4	-2.6
O=C(NCC(c1cccnc1)N1CCN(c2ccc(F)cc2)CC1)c1ccc(F)cc1 (stereo not given)	46.7	7.5
CCC(=O)N1CCN(C(=O)CC)C1c1ccccc1	31.9	2.7
CCOC(=O)c1cnn(-c2nc(SC)nc3sc4c(c23)CCCC4)c1N	32.9	-10.7
CCSC(C)CC1C/C(=N/O)c2c(C)noc2C1 (stereo not given)	121.0	2.7
CC(=O)C1=C(C)NC(C)=C(C(C)=O)C1c1cn(-c2ccccc2)nc1-c1cccs1	51.0	7.6
CCOc1cc(/C=C2/C(=N)N3C=CSC3=NC2=O)ccc1OCCCOc1ccccc1C	40.1*	86.9*
Nc1cc(C(=O)O)ccc1Nc1ccc(F)c(F)c1	56.2	4.4
C=CC1C(N2CCOCC2)C(C)(C)S1(=O)=O (stereo not given)	51.0	2.7
O=C(Cc1ccccc1)Nc1ccc2oc(-c3cccnc3)nc2c1	45.8	1.2
CC1Cc2ccccc2N1c1nc(C2CC2)nc2c1nnn2Cc1ccccc1 (stereo not given)	31.7	18.8
CCN(CC)CCN1C(=O)c2oc3ccccc3c(=O)c2C1c1cccc(Br)c1 (stereo not given)	50.9	-1.1
CCC(=O)c1ccccc1OCCSc1nc(C)cc(=O)[nH]1	42.3	-7.7
Cc1nc2ccccc2n1/N=C/c1ccc([N+](=O)[O-])o1	64.5	0.2
COc1cccc(C(=O)NC(C)C(c2cccs2)N2CCOCC2)c1 (stereo not given)	36.2	5.0
COc1ccc(C(C(=O)NC2CCCC2)N(C(=O)c2ccoc2C)c2ccc(C)cc2)cc1 (stereo not given)	43.5	8.6
CC(C)=CCSc1nnc([C@@H](N)Cc2c[nH]c3ccccc23)o1	40.5	-9.4
CCNC(=O)c1sccc1-n1cccc1	98.7	-10.8
COC(=O)CCCCCc1ccc(C(C)=O)s1	44.4	-4.1
CC(C)c1cc(NCCCN2CCOCC2)n2c(nc3ccccc32)c1C#N	44.6*	53.4*
O=C(Nc1nc(COc2ccccc2)cs1)C1CCC1	45.3	4.3
O=C(c1ccco1)c1cc2c(ccc3ccccc32)oc1=O	37.0	7.2
CCCC(C)NC(=O)COC(=O)c1ccc(Cl)c(S(N)(=O)=O)c1 (stereo not given)	41.4	-7.8
Cc1ccc(NC(=O)CN2C(=O)S/C(=C\c3cccn3-c3cccc(C(=O)O)c3)C2=O)c(C)c1	37.0	29.0
O=C(CSc1oc(-c2ccc(F)cc2)nc1S(=O)(=O)c1ccc(F)cc1)NCC1CCCO1 (stereo not given)	115.4	-1.8
N#Cc1c(/N=C/c2ccco2)sc2c1CCC2	45.0	4.3
COc1cccc(CC(=O)NCC2COc3ccccc3O2)c1OC (stereo not given)	68.6	-8.0
COc1ccc(-c2cc(-c3ccccc3)c(C#N)c(S(C)(=O)=O)n2)cc1	36.4	-148.9
Cc1cccnc1NC(=S)NC(=O)/C=C/c1ccco1	46.5	-6.1
COc1ccc(OC)c(C2=Nn3c(nnc3-c3ccco3)SC2)c1	i	2.5
O=C1C/C(=C/NCc2ccccc2)C(=O)N1	32.4	-2.9
CCc1cccc(NC(=O)CSCc2cc(=O)[nH][nH]2)c1	110.9	5.1
COc1ccccc1Oc1c(C)oc2cc(OC(=O)c3ccco3)ccc2c1=O	105.0*	88.0*
C[C@H]1[C@H](C)CC[C@]2(C)CC[C@]3(C)C(=CC[C@@H]4[C@@]5(C)CC[C@@H](O)[C@](C)(C(=O)O)[C@@H]5CC[C@]43C)[C@H]12	52.9	5.3
CCOP(=O)(OCC)c1nc(/C=C/c2ccccc2)oc1NCc1ccccc1	166.1	45.6
O=C1CC(C(F)(F)C(F)(F)C(F)(F)C(F)F)=Nc2ccccc2N1	38.4	-12.3
COC(=O)c1ccc(-c2sc3nc(N4CCOCC4)c4c(c3c2N)CCCC4)o1	116.4*	.
COc1ccc(/C(O)=C2/C(=O)C(=O)N(CCN(C)C)C2c2ccccc2)cc1Cl (stereo not given)	31.5	3.5
O=C(NCCO)c1c(O)c2cccc3c2n(c1=O)CC3	48.8	13.0
Fc1cccc(Cl)c1CSc1nnc(COc2cccc3cccnc23)o1	145.0	-8.6
CCOC(=O)C1=C(O)CCn2c1nc1ccccc12	103.5	2.6
CS(=O)(=O)Nc1ccccc1C(=O)Nc1cc(Cl)cc(Cl)c1	91.4	24.2
CCOC(=O)c1[nH]c2ccc(OC)cc2c1NC(=O)CCN1CCCC(C)C1 (stereo not given)	55.6	10.1
Cn1c(NCCCO)nc2c(c1=O)C1(CCCCC1)Cc1ccccc1-2	31.7	-37.1
O=C1C2C(c3ccccc3)C=CC(c3ccccc3)C2C(=O)N1CCO (stereo not given)	53.6	42.3
Cc1ccc(-c2nc(CN(C)C)cc(CN(C)C)c2O)cc1	30.5	27.6
O=C1C2C3C=CC(C3)C2C(=O)N1c1ccc(-c2nc3ccccc3o2)cc1 (stereo not given)	139.5	-3.8
Cc1cc2oc3cc(NCCC4CCCN4C)ccc3c(=O)c2cc1C (stereo not given)	68.2*	157.8*

The list continues.
compound	RmlC RmlD mix	RmlC RmlD mix retest
CCCCOc1ccc(C2OC34CCCCC3C(C#N)(C#N)C2(C#N)C(=N)O4)cc1 (stereo not given)	161.0*	72.2*
CCCCCCc1cc2cc(-c3nnc(-c4ccccc4)o3)c(=O)oc2cc1O	60.3	-479.4
CCCCOCC(O)CN1CCN(C(C)=O)CC1 (stereo not given)	93.9	0.0
Cc1ccc(C(CC(=O)O)Nc2nc(N3CCCCC3)nc(N3CCCCC3)n2)cc1 (stereo not given)	36.2	-5.0
Cc1cc(-c2nn3c(C)nnc3s2)ccc1NC(=O)C(C)(C)C	125.9	-15.4
CN1CCN(C(=O)c2cc3c(n(-c4ccccc4)c2=O)CC(C)(C)CC3=O)CC1	30.6	12.5
Clc1ccccc1-c1nc2ccccc2c2nncn12	50.4	-10.2
Cc1csc(=N)n1-c1ccc(Cl)cc1	71.7	4.6
COCCNC(=O)c1cc2c(=O)n3cccc(C)c3nc2n1C	46.2	-12.4
Cc1ccc(CNC(=O)c2cnc(-c3ccccn3)nc2C(F)(F)F)cc1	74.8	-3.2
CC(C)CC(=O)N1CCC(N2CCN(c3ccccc3)CC2)CC1	38.5	-8.1
COc1cc(OC)cc(C(=O)n2cnnc2N)c1	44.6	-5.4
Fc1ccccc1/C=N/Nc1nn[nH]n1	35.7	-6.9
Cc1ccc(S(=O)(=O)N2CCC(C(=O)N[C@@H](Cc3ccccc3)C(=O)O)CC2)cc1	63.5	-4.5
CC(Oc1ccc2oc(-c3ccccc3)c(C(=O)O)c2c1)C(=O)O (stereo not given)	58.0*	32.9*
COCCn1c(-c2ccccc2)nc(=S)c2c1CC(C)(C)OC2	i	-5.4
CCOC(=O)C(C)NC(=O)C(NC(=O)C1CCC(CC)CC1)C(C)C (stereo not given)	i	-9.2
Cc1nc2sc3c(NCc4ccco4)ncnc3c2c2c1COC(C)(C)C2	46.7	6.4
COc1ccccc1-c1nc(C#N)c(N2CCC(C(N)=O)CC2)o1	31.8*	33.6*
CCc1cc(=O)oc2c(CN3CCCC3)c(O)c(Cl)cc12	90.4*	63.5*
COc1ccc(NC(=O)CN2CCN(c3nc(-c4cccc(OC)c4)cs3)CC2)cc1	100.0	3.6
COC(=O)C(O)(c1ccc(NC(=O)c2ccco2)c(OC)c1)C(F)(F)F (stereo not given)	33.6	1.6
COc1ccc(C2OCC3(CO2)SC(N)=NC3=O)cc1 (stereo not given)	40.1	-8.7
CCNCCNc1ccc(Cl)cc1[N+](=O)[O-]	i	-3.2
COC(=O)c1c(NC(=O)CN2CCN(c3ccccc3)CC2)c2c(C)cccc2n1C	34.6	-6.3
COc1cc(/C=N/n2cnnc2)ccc1OC(=O)c1ccncc1	52.8	5.4
COc1ccc2cc(-c3nc4ccccc4n3C)c(=O)oc2c1	31.1*	92.6*
CC(=O)c1cccc(NC(=O)N2CCCC2C(=O)Nc2cccc(C)c2C)c1 (stereo not given)	32.2	-13.6
Cc1cccc(OCC(=O)N(Cc2cccs2)C2CCS(=O)(=O)C2)c1 (stereo not given)	69.4	-8.3
COc1ccc(C)cc1NC(=O)CN1C(=O)c2cccc3cccc1c23	55.2	20.2
CCOC(=O)c1oc2nc(C(C)C)c3c(c2c1N)CC(C)(C)OC3	31.0	-109.0
c1ccc(-c2ccc3c(c2)c2c4n3CCN=C4CCC2)cc1	38.0	9.1
CN(C)CCSc1nc(N)c2c3c(sc2n1)COC(C)(C)C3	32.9	2.8
N#Cc1c(N)n(CCNC(=O)c2ccc(Cl)cc2)c2nc3ccccc3nc12	43.1	14.1
CCCN1CN(Cc2ccccc2)CC2=C1CC(C)(C)CC2=O	101.5	-2.5
Cc1oc2c(CN3CCCC3)c(O)ccc2c(=O)c1Oc1ccccc1Br	63.7*	98.5*
O=C(CN1CCOCC1)Nc1scc(-c2ccccc2)c1C(=O)N1CCOCC1	32.4	-1.2
CC1(C)OC(=O)C(=CNc2ccccc2F)C(=O)O1	i	-10.6
N#CC1=C(N)N=C(SCc2ccccc2)C(C(N)=O)C12CCCCC2 (stereo not given)	39.3	-2.4
CN1CCN(S(=O)(=O)c2ccc(-c3ccccc3)cc2)CC1	49.7	9.1
Cc1cccc(C=Nc2ccccc2C(N)=O)c1	36.3	24.5
Nc1nc2nccc(-c3ccc(Cl)cc3)n2n1	121.3	94.3
COc1ccc(Oc2coc3c(CN(C)C)c(O)ccc3c2=O)cc1	58.6	18.2
COc1cccc(CN(CC(=O)NCC2CCCO2)C(=O)CCC(=O)Nc2cc(C)on2)c1 (stereo not given)	48.3	-4.4
CCOC(=O)N1CCC(NC(=O)CSCc2nc(-c3cccc(OC)c3)oc2C)CC1	33.4	-11.7
Nc1cc(N)nc(SCC(=O)NNC(=O)c2ccc(Cl)cc2)n1	89.6	8.5
Cc1cccc(-n2ncc3c(N4CC(C)CC(C)C4)ncnc32)c1 (stereo not given)	160.6	-2.1
Cc1cccc(NC(=O)Cn2cnc3sc(C)c(S(=O)(=O)N4CCC(C)CC4)c3c2=O)n1	30.4	3.4
COC(=O)Cc1c(C)c2ccc(OC(=O)c3ccccc3)cc2oc1=O	63.9*	90.8*
Cc1c(Cl)cccc1Nc1nc(N)nc(CN2CCCCCC2)n1	63.8	2.7

Other entries follow:
compound	RmlC RmlD mix	RmlC RmlD mix retest
COc1ccc(NC(=O)C2CCCN(C(=O)NC3CCCCC3)C2)cc1OC (stereo not given)	70.9	-4.7
CCCCn1c(SCC(=O)c2ccc(OC)c(OC)c2)nc2cc(S(N)(=O)=O)ccc21	61.0	-7.4
CCCCOc1ccc(C(=O)N/C(=C\c2ccc(OC)cc2)C(=O)OCc2ccco2)cc1	55.5	-7.0
Nc1c(-c2ccccc2)nc(Cl)nc1-c1ccccc1	79.0	-77.4
CCC(C)[C@H](NC(=O)NCc1cccc(OC)c1)C(=O)O (stereo not given in full)	34.2	4.8
N#Cc1nc(-c2ccccc2)oc1NCCN1CCCCC1	43.3	12.0
COc1ccc(/C=C/C(=O)Oc2ccc(/C=N/NC(=O)COc3c(C)cccc3C)cc2)cc1	44.2	-3.5
Cn1c(SCc2cc(=O)n3cc(Br)ccc3n2)nnc1C1COc2ccccc2O1 (stereo not given)	59.0	-1.0
Cc1ccc(-n2c(Cc3ccccc3)n[nH]c2=S)cc1	50.9	3.3
Cc1cccc(NC(=S)NCC2CCCO2)c1 (stereo not given)	136.2	-10.2
CN1C(=O)c2ccccc2NC(=O)C1Cc1ccccc1 (stereo not given)	104.7	-10.5
CC(/C=C/c1ccco1)=N\NC(=O)c1cc(C)[nH]n1	54.6	0.7
CCn1cc(C(=O)O)c(=O)c2cc(F)c(N3CCNCC3)cc21	31.3	18.7
COc1ccccc1OCC(=O)Nc1ccc(CSc2ccccc2)cc1C	41.2	-16.5
CN(C)S(=O)(=O)c1cc(C(=O)NCC2CCCO2)c(Cl)cc1Cl (stereo not given)	43.9	-5.0
O=C1N/C(=C\c2ccccc2)c2ccccc21	40.5	7.0
O=C(NCc1ccco1)c1nc(-c2ccccc2)n(-c2ccccc2)n1	30.3	-5.5
COc1ccccc1NC(=O)c1sc2ncn(Cc3cccc(C)c3)c(=O)c2c1C	65.6*	.
CC(=O)Oc1ccc2c(C)cc(=O)[nH]c2c1	64.2*	118.7*
Cc1ccccc1OCC(=O)NCCN1CCCC1	32.2	-14.0
Cc1ccccc1C(=O)NCCc1nnc(SCC(=O)Nc2nc(-c3ccccc3)cs2)n1C	84.9	-0.6
CCCCN(CC)C(=O)Cc1cn(C)c2ccccc12	161.0	-4.8
COc1ccc(OCc2nnc(SCC(=O)NCc3ccco3)o2)cc1	101.9	-7.0
CNc1ccc(Br)cc(C(=O)/C=C/c2cccc(OC)c2OC)c1=O	94.2	-5.9

Reprinted at random: 2 entries already listed
compound	RmlC RmlD mix	RmlC RmlD mix retest
Cc1ccc(C(CC(=O)O)Nc2nc(N3CCCCC3)nc(N3CCCCC3)n2)cc1 (stereo not given)	36.2	-5.0
COC(=O)Cc1c(C)c2ccc(OC(=O)c3ccccc3)cc2oc1=O	63.9*	90.8*

Single entries from above:
In RmlC RmlD mix retest, Cn1c(SCc2cc(=O)n3cc(Br)ccc3n2)nnc1C1COc2ccccc2O1 (stereo not given) shows -1.0
In RmlC RmlD mix, COc1ccc(OCc2nnc(SCC(=O)NCc3ccco3)o2)cc1 shows 101.9
In RmlC RmlD mix retest, CCCCOc1ccc(C(=O)N/C(=C\c2ccc(OC)cc2)C(=O)OCc2ccco2)cc1 shows -7.0
In RmlC RmlD mix retest, COc1ccc(/C=C/C(=O)Oc2ccc(/C=N/NC(=O)COc3c(C)cccc3C)cc2)cc1 shows -3.5

Bioassay records: PubChem, PCMD

These rows are one share of the data; rates above refer to the full screens.
